From PubChem BioAssay
VCAM-1 up = enhancers of VCAM-1 display on endothelial cells, cell-based, plate reader, pooled HUVEC, TNFa stimulus (AID 455). augmentation, % at 5 µM. HUVEC TNFa-induced VCAM-1 immunofluorescence, plate reader; numbers were filed only for top-ranked candidate wells. hit rate 0.2% among 10,000;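 active = a compound raising TNF-alpha-driven VCAM-1 surface staining, with its hit status upheld on visual or statistical review; inactive = the rest, including hits rejected on review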;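 also: 0% = TNFa with vehicle and 100% = strongest image-checked hit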
26S disassembly = blocks ATP-dependent breakdown of the yeast 26S proteasome. anti-FLAG beads, GFP-proteasome disassembly, flow cytometry. inhibition of disassembly, % (concentration not given with the values). hit rate 0.2% among 24,000;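 active = above 40%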;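 also: plate controls were ATP control with full disassembly for no effect and ATP-gamma-S intact proteasomes for full effect; higher percent means more bead fluorescence retained so stronger block of disassembly; stock transfer was 100 nL into about 10 µL; wells with too few beads may also be inconclusive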
Numbers without * were called inactive; i = inactive; x = no result given.

SMILES | VCAM-1 up | 26S disassembly
COc1cc(OC)c(C(=O)Nc2ncn[nH]2)cc1OC | i | -3.9
CCN1CCCC(NC(=O)c2scc3c2CCCC3)C1 (configuration not stated) | x | 0.7
CCOC(=O)CSc1nnc(-c2ccc(Cl)cc2Cl)o1 | i | -0.5
Cc1cccc(NC(=O)CCN2CCN(C/C=C/c3ccccc3)CC2)c1 | i | 1.6
COC(=O)C1=C(C)n2cnnc2NC1c1ccc(Cl)cc1 (configuration not stated) | x | 1.2
O=CN1CCC(=O)N(Cc2ccccc2)c2ccccc21 | x | 0.2
O=C1CC(c2ccco2)CC(O)=C1C=NCC1NCCc2ccccc21 (configuration not stated) | i | 5.0
CSc1cccc(NS(=O)(=O)c2ccccc2)c1 | i | 1.3
Cc1cccc(OCC(=O)N(Cc2cccs2)C2CCS(=O)(=O)C2)c1C (configuration not stated) | i | 0.9
O=C(Cn1cccc1C(=O)c1ccccc1)NCCN1CCOCC1 | i | 0.9
CCC1CCCCN1C(=O)CSc1nc2c([nH]c3ccccc32)c(=O)n1C (configuration not stated) | x | 1.7
CCS(=O)(=O)NCCc1cc2c(OC)ccc(OC)c2[nH]c1=O | i | -1.4
O=C(CCCn1c(SCC(=O)c2ccc(O)c(O)c2)nc2ccccc2c1=O)NCC1CCCO1 (configuration not stated) | x | -1.4
Cn1c(=O)cc(OCC(=O)N2CCN(c3cccc(C(F)(F)F)c3)CC2)c2ccccc21 | i | -1.1
O=C(CCc1nc(-c2ccccc2F)no1)NC1CCCCCC1 | x | 0.0
CCC(C(=O)NC(C)CCc1ccccc1)n1nc(C)n2c(cc3occc32)c1=O (configuration not stated) | x | 1.1
CCC(=O)N1Cc2ccccc2-c2ccccc2C1=O | i | 0.2
COc1cc(C(=O)OC(C)CN2CCCC2)cc(OC)c1OC (configuration not stated) | i | -1.1
O=C1CC(C2CCCO2)C(=O)N1Cc1ccccc1 (configuration not stated) | i | -1.8
O=C(OCn1nnc2ccccc2c1=O)c1ccc(S(=O)(=O)N2CCOCC2)cc1 | x | -0.6
Cc1cc(NC(=O)CCC(=O)N(c2cccnc2)C(C(=O)NC2CCCC2)c2ccccc2F)no1 (configuration not stated) | i | 0.6
O=C(Nc1ccncc1)C1CCCN(S(=O)(=O)c2cccc3cccnc23)C1 (configuration not stated) | i | -0.3
COc1ccc(OC)c(NC(=O)CSc2nc3ccccc3c(=O)n2CCNC(C)=O)c1 | i | 0.5
COc1ccc(N(C)S(=O)(=O)c2ccc3c(c2)CCC(=O)N3)cc1 | x | -3.6
O=C(Nc1cccc(F)c1)c1ccc2c(c1)OCO2 | i | -0.3
O=C(Cc1nc2ccccc2s1)c1ccc(O)cc1O | i | -2.5
COCCNC(=O)CSc1nc2cc(OC)c(OC)cc2c(=O)n1Cc1ccc(OC)cc1 | x | -1.2
Cc1cc2cc(CNC(=O)c3cccs3)ccc2n1C | x | 4.5
Cc1oc(-c2ccc(Cl)cc2)nc1CN1CCCC(C(=O)NCCCN2CCCC2=O)C1 (configuration not stated) | x | 8.0
CCCCOc1ccc(NC2=NC3(CCCCC3)N=C(N)N2)cc1 | x | 0.0
CCCCCCC(=O)c1c(C)[nH]c(C(=O)OCC)c1C | i | -0.2
COc1cccc(C(=O)Nc2cc(NC(=O)c3ccco3)ccc2OC)c1 | i | -1.0
O=C(CCn1c(=O)oc2ccccc21)N1CCc2ccccc21 | x | -1.0
CC(=O)C1=C(C)OC(N)=C(C#N)C1c1ccncc1 (configuration not stated) | i | 0.4
N#CC1=C(N)N(c2ccccc2)C2=C(C(=O)CCC2)C1c1ccsc1 (configuration not stated) | x | -0.6
CCCCCC1CC(CC(=O)O)C(=O)O1 (configuration not stated) | i | 0.6
O=C(O)CC1SC(=Nc2cccc(C(F)(F)F)c2)NC1=O (configuration not stated) | i | -0.6
Cc1cccc(NS(=O)(=O)c2cc(C(=O)OCC(=O)Nc3cc(C)on3)ccc2C)c1 | i | 2.3
O=C1c2ccccc2NC(c2ccco2)N1O (configuration not stated) | i | -1.3
Cn1c(SCC(=O)N2CCN(c3cccc(Cl)c3)CC2)nnc1-c1ccncc1 | i | -2.7

Next part, starting with the last six of the part before.
SMILES | VCAM-1 up | 26S disassembly
N#CC1=C(N)N(c2ccccc2)C2=C(C(=O)CCC2)C1c1ccsc1 (configuration not stated) | x | -0.6
CCCCCC1CC(CC(=O)O)C(=O)O1 (configuration not stated) | i | 0.6
O=C(O)CC1SC(=Nc2cccc(C(F)(F)F)c2)NC1=O (configuration not stated) | i | -0.6
Cc1cccc(NS(=O)(=O)c2cc(C(=O)OCC(=O)Nc3cc(C)on3)ccc2C)c1 | i | 2.3
O=C1c2ccccc2NC(c2ccco2)N1O (configuration not stated) | i | -1.3
Cn1c(SCC(=O)N2CCN(c3cccc(Cl)c3)CC2)nnc1-c1ccncc1 | i | -2.7
Cc1[nH]nc2c1C(C1CC=CCC1)C(C#N)=C(N)O2 (configuration not stated) | i | 1.9
O=C(CSc1nnnn1-c1ccccc1)Nc1nc(-c2ccccc2)ns1 | x | -0.7
Cc1nc(CCNS(=O)(=O)c2cccs2)cs1 | i | -0.9
COCCCNC(=O)C1CCN(C(=O)c2cc3sccc3n2Cc2ccc(F)cc2)CC1 | x | -1.4
Cn1c(=O)c2c(nc(SCC(=O)Nc3ccccc3)n2C)n(C)c1=O | x | 0.3
CCc1ccc(-c2nc(CS(=O)CC(=O)NCc3cccnc3)c(C)o2)cc1 (configuration not stated) | x | 0.4
COc1ccc(-c2nnc3ccc(SC(C(C)=O)C(C)=O)nn23)cc1OC | i | -1.2
COc1ccc(NC(=O)CCOc2ccccc2)c(OC)c1 | x | -0.1
O=C(O)c1ccc(S(=O)(=O)NC2CCCc3ccccc32)cc1 (configuration not stated) | x | -0.4
CCN(CC)c1cc(C)c2cc(NC(=O)CNC(C)=O)ccc2n1 | x | -0.8
Cc1ccccc1Cn1c(=O)c2c(nc3n2CCCN3Cc2ccccc2)n(C)c1=O | i | 3.1
CCCc1cc(C(=O)Nc2ccccc2C(=O)OC)no1 | i | 0.8
COCCn1c(=NC(=O)CSC(C)=O)sc2cc(F)ccc21 | i | -1.8
COc1ccc2oc(C)c(C(=O)Cn3ccnc3)c2c1 | i | 0.1
COCCn1c(=O)[nH]c2cc(C(=O)NCCc3ccc(OC)c(OC)c3)ccc2c1=O | x | -1.2
Nc1nnnn1/N=C/c1ccccn1 | i | -0.6
O=C(Nc1ccccc1C(=O)N1CCOCC1)c1cccc(S(=O)(=O)N2CCCC2)c1 | i | 1.4
O=C(CN1CCN(c2ccccn2)CC1)Nc1ccc(OCc2ccccc2)cc1 | x | 2.1
Cc1nc(CCNC(=O)c2ccccc2)cs1 | i | -0.7
Cc1cc(C)n(CC(=O)O)n1 | i | -0.1

The final two records of the section before lead into the next.
SMILES | VCAM-1 up | 26S disassembly
Cc1nc(CCNC(=O)c2ccccc2)cs1 | i | -0.7
Cc1cc(C)n(CC(=O)O)n1 | i | -0.1
CCOC(=O)Cn1c(=O)oc2cc(S(=O)(=O)N3CCc4ccccc43)ccc21 | x | -0.4
CCc1nnc(NC(=O)c2ccc(COc3ccccc3)o2)s1 | i | 0.5
O=C(NC1CC1)c1ccc(CSCc2cccc(F)c2)o1 | x | -3.0
CCOC(=O)N1CCN(C(=O)CNS(=O)(=O)c2cccs2)CC1 | x | -0.6
Cc1cc(-c2nsc(=O)o2)c(S(C)(=O)=O)s1 | x | 1.1
COc1cccc(CNC(=O)Cn2cc3c(n2)CCCC3)c1 | x | -2.2
COCCNC(=O)c1cc(-c2cccc(OC)c2)on1 | x | -0.2
C=CCn1c(N)c(C(=O)NCCC2=CCCCC2)sc1=S | i | -3.3
Cn1cc(C(=O)N2CCN(c3ccccn3)CC2)c(=O)c2cc(S(=O)(=O)N3CCOCC3)ccc21 | x | 1.4
O=C(NCC1CCCO1)c1ccc2c(c1)N(Cc1ccccc1)C(=O)CS2=O (configuration not stated) | x | 5.2
O=C1CC(N2CCN(c3ccc(Cl)c(Cl)c3)CC2)C(=O)N1 (configuration not stated) | i | -1.2
COCCN(CCOC)C(=O)c1c[nH]c2ccc(S(=O)(=O)N(C)c3ccc(F)cc3)cc2c1=O | x | 0.9
COc1ccc2cc(CN(Cc3ccco3)C(c3nnnn3C3CCCCC3)C(C)C)c(=O)[nH]c2c1 (configuration not stated) | i | -0.2
Cc1ccc(CS(=O)(=O)CCC(=O)NCc2ccc3c(c2)OCO3)cc1 | x | -0.8
CN(Cc1ccccc1)S(=O)(=O)c1ccc2[nH]cc(C(=O)NCC3CCCO3)c(=O)c2c1 (configuration not stated) | x | 0.0
Cc1cc(C(=O)O)c(=O)[nH]c1C | x | 0.2
CC(=O)Nc1ccc(S(=O)(=O)Nc2nc3ccccc3nc2N2CCCC2)cc1 | i | -0.2
Cc1cc(Nc2cccc(Cl)c2)n2ncnc2n1 | x | -4.1
COc1ccccc1NC(=O)c1ccc(NS(=O)(=O)c2c(C)noc2C)cc1 | x | -2.0
CCCCNC(=O)CCCn1c(=S)[nH]c2cc3c(cc2c1=O)OCO3 | x | 0.6
CCCCNC(=O)c1cc(-c2ccc(OC)c(OC)c2)on1 | x | 0.1
CCOC(=O)N1CCC(O)(c2cc(C)c(C)cc2C)CC1 | i | -0.7
O=C(Nc1nccs1)c1ccc(Cl)c(S(=O)(=O)N2CCCCC2)c1 | i | -0.3
O=C(NC1CCCCC1)C(c1ccccc1)N1CCC2(CC1)OCCO2 (configuration not stated) | x | -1.6
Cc1ccccc1C(=O)Nc1ccc2nc3n(c(=O)c2c1)CCC3 | x | 2.0
N#Cc1nc(-c2ccc(Cl)cc2)oc1NCCc1ccccn1 | i | -6.2
COc1ccc(Cl)cc1-n1c(=S)sc2c(=O)[nH]c(SCC(=O)NCC3CCCO3)nc21 (configuration not stated) | x | 1.4
Cc1cc(C)c2[nH]c(=O)c(C(c3nnnn3Cc3ccc4c(c3)OCO4)N3CCC(C)CC3)cc2c1 (configuration not stated) | i | 9.3
O=C(CC1CCCCC1)OCn1nnc2ccccc2c1=O | x | 0.2
COc1ccc2nc(NC(=O)C3CCCN(S(=O)(=O)c4cccs4)C3)sc2c1 (configuration not stated) | x | 2.6
CC[C@H]1OC(=O)C[C@@H](O)[C@H](C)[C@@H](O[C@@H]2O[C@H](C)C[C@H](N(C)C)[C@H]2O)[C@@H](CC=O)C[C@@H](C)C(=O)C=C[C@]2(C)O[C@H]2[C@@H]1C | i | -0.1
CCOc1ccccc1Oc1coc2cc(O)ccc2c1=O | x | 0.5
Cn1nc(-c2ccc(Cl)cc2)c2cc(C(=O)N3CCCC3)sc21 | x | 0.0
COc1ccc(-c2nnc(-c3ccc(N)cc3)o2)cc1 | i | 3.4
O=C(C1COc2ccccc2O1)N1CCn2c(nc3ccccc32)C1 (configuration not stated) | x | 2.2
Cc1ccc(N=C2NC(=O)CS2)c(C)c1 | i | 0.2
COc1ccc(C(=O)N2CCN=C2SCc2cccnc2)cc1OC | x | 1.2
Cc1cccc(NC(=O)c2ccc(NS(=O)(=O)c3c(C)noc3C)cc2)c1 | x | 1.6
COc1ccc2cc(C(=O)N3CCOCC3)sc(=O)c2c1OC | x | -1.8
COC(=O)CCC(=O)c1oc2ccc(Cl)cc2c1NC(=O)CCCN1C(=O)c2ccccc2C1=O | x | 1.1

A run of entries of the results above, for reference:
SMILES | VCAM-1 up | 26S disassembly
Cc1cccc(NC(=O)c2ccc(NS(=O)(=O)c3c(C)noc3C)cc2)c1 | x | 1.6
COc1ccc2cc(C(=O)N3CCOCC3)sc(=O)c2c1OC | x | -1.8
COC(=O)CCC(=O)c1oc2ccc(Cl)cc2c1NC(=O)CCCN1C(=O)c2ccccc2C1=O | x | 1.1

The list goes on:
SMILES | VCAM-1 up | 26S disassembly
CC1CCCN(C(=O)CN2C(=O)c3ccccc3C2=O)C1 (configuration not stated) | i | 0.1
Cn1cccc1Cc1nnc(SCC(=O)NC2CCCCC2)n1-c1ccc(F)cc1 | x | 0.5
CCC(=O)N1CCc2cc(S(=O)(=O)NCCCN3CCN(Cc4ccccc4)CC3)ccc21 | x | -0.8
Cc1cccc(OCC2=NS(=O)(=O)c3ccccc3N2)c1 | x | -0.3
Cc1cccc(N2CCN(C(=O)c3ccc(CS(=O)(=O)c4ccccc4C)o3)CC2C)c1 (configuration not stated) | x | -0.7
CC(=O)OC1c2ccccc2C(=O)N1Cc1ccccc1Cl (configuration not stated) | i | -1.1
COc1ccc(OC)c(S(=O)(=O)N2CCN(c3c(C)cccc3C)CC2)c1 | i | 0.9
C=CCNC(=O)C1CCCN(S(C)(=O)=O)C1 (configuration not stated) | x | -3.0
COc1ccccc1NC(=O)CCn1c(=O)sc2ccccc21 | x | 0.6
CN(C)c1oc(-c2ccccc2Cl)nc1C#N | i | 0.3
CC(=O)N1CCc2cc(S(=O)(=O)NCCCOC(C)C)ccc21 | x | -0.1
NC(CO)C(=O)NNCc1ccc(O)c(O)c1O (configuration not stated) | i | -1.1
COCCn1c(CN2CCN(c3cccc(Cl)c3)CC2)nc2c1c(=O)n(C)c(=O)n2C | i | 0.1
Cc1nc(NC(=O)CCC(=O)O)sc1C(=O)N(C)C | x | -1.7
CN(C)S(=O)(=O)c1ccc2c(c1)c(=O)c(C(=O)N1CCN(c3ccccn3)CC1)cn2C | x | 0.8
COc1ccc(NC(=O)C(c2ccc(OC)cc2)N(C)C(=O)c2cnccn2)cc1 (configuration not stated) | x | 2.4
COc1ccc(S(=O)(=O)Cc2ccc(C(=O)NCc3ccc(F)cc3)o2)cc1 | x | -0.8
Cn1c(-c2cc(Br)ccc2O)n[nH]c1=S | i | -0.4
CCCN1CCN(C(=O)CCCn2c(C)c3cnn(-c4ccccc4)c(=O)c3c2C)CC1 | x | 0.6

Only part of the results is shown; count on the stated rates, not on these rows.
